A1 inh: inhibitors of the anti-apoptotic protein A1, read as caspase activation | actives 0.066% (n = 330,000) | caspase activation, % (test concentration not listed) | MEF A1-2A-BIM cells, Caspase-Glo 3/7 luminescence, 3 h; percent of clofoctol response, vehicle zero;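 active = over half of replicate activation scores above 10%, or exactly half above 10 with the replicate mean above 10; inconclusive = replicate mean below 10 yet half the replicates above 10; inactive = over half of replicates below 10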;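 also: wells of about 30 µL received 50 nL stock; many hits fall short of the cut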
T cruzi inh: T. cruzi replication inhibition; inhibition, % (test concentration not listed); actives 1.4% (n = 300,000); T. cruzi beta-gal in NIH3T3, luminescence, 90 h;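 active = mean inhibition across valid replicates above about 55%, limit read from the data; inconclusive = mean below that limit but half or more replicates reach it; inactive = mean below it, under half of replicates reach it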;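 also: signal also drops with host cell toxicity which is not excluded here; 0% = plate median of DMSO wells and 100% = zero luminescence signal; higher percent means less beta-gal luminescence so fewer parasites; stock transfer was 50 nL into about 50 µL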
Beta cell apopt: blocks beta cell apoptosis; INS-1E cytokine-induced death, ATP luminescence, 48 h; percent of positive-control rescue, neutral wells zero; protection from apoptosis, % (test concentration not listed); AID 435005; actives 0.8% (n = 300,000);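 active = all replicates at 75% or more, or half of them and the mean; inconclusive = half reach 75% but not the mean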;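 also: 0% = cytokine-treated negative control wells and 100% = positive control rescue; higher means more ATP so stronger rescue from cytokine killing; wells of about 40 µL received 100 nL stock; the first replicate is given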
Calb FLC: C. albicans growth modulation with fluconazole; C. albicans CaCi-2 (fluconazole-resistant clinical isolate) + fluconazole, Alamar Blue growth, 48 h; growth inhibition, % (test concentration not listed); actives 0.57% (n = 300,000); AID 1979;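 active = most replicates above 75%; inconclusive = exactly half above 75%; inactive = most below 75%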;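 also: all wells also contain fluconazole at 8 µg/ml as a sub-toxic cotreatment; 0% = median of DMSO wells and 100% = median of geldanamycin control wells; wells of about 8 µL received 7.5 nL stock; the first replicate is given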
ALR H2O2 inh: blocks human ALR sulfhydryl oxidase activity | P55789 | inhibition, % (concentration not given with the values) | actives 3.8% (n = 290,000) | AID 485317 | purified ALR, DTT oxidation, H2O2 HRP-luminol luminescence;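 active = mean and each replicate at 75% or more; inconclusive = only one of the two met; inactive = neither met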;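 also: stock transfer was 7.5 nL into about 7.5 µL; 0% = neutral wells and 100% = wells with inactivated enzyme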
Ecoli rRNA inh: selective bacterial rRNA inhibition in E. coli | E. coli WT GFP vs humanized-ribosome RFP mutants, fluorescence, 24 h; active compounds read low; DMSO median 0, no signal -100 | AID 720706 | actives 1.6% (n = 350,000) | GFP signal change (wild-type ribosome), % (no concentration beside the values);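 active = significant combined selectivity score with lowered wild-type GFP, culture density cut under 30%, mutant RFP and density less affected; inactive = any of these conditions unmet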; also: one replicate is shown; some compounds called inactive have numbers as strong as hits
LANA-H2A inh: blocks KSHV LANA binding to histone H2A/H2B; inhibition, % (no concentration beside the values); AID 2629; actives 0.6% (n = 320,000); cell-free LANA-H2A/H2B peptide, fluorescence polarization; Q9QR71; in the data active = inhibition mostly above about 10%, no sharp cut-off; inactive = mostly below about 6.7%;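 also: stock transfer was 7.5 nL into about 10 µL; 0% = median of vehicle wells and 100% = median of positive control wells; one replicate is shown; the record names a cut of 25% in any replicate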
Target sequence (Q9QR71 whole entry, looked up): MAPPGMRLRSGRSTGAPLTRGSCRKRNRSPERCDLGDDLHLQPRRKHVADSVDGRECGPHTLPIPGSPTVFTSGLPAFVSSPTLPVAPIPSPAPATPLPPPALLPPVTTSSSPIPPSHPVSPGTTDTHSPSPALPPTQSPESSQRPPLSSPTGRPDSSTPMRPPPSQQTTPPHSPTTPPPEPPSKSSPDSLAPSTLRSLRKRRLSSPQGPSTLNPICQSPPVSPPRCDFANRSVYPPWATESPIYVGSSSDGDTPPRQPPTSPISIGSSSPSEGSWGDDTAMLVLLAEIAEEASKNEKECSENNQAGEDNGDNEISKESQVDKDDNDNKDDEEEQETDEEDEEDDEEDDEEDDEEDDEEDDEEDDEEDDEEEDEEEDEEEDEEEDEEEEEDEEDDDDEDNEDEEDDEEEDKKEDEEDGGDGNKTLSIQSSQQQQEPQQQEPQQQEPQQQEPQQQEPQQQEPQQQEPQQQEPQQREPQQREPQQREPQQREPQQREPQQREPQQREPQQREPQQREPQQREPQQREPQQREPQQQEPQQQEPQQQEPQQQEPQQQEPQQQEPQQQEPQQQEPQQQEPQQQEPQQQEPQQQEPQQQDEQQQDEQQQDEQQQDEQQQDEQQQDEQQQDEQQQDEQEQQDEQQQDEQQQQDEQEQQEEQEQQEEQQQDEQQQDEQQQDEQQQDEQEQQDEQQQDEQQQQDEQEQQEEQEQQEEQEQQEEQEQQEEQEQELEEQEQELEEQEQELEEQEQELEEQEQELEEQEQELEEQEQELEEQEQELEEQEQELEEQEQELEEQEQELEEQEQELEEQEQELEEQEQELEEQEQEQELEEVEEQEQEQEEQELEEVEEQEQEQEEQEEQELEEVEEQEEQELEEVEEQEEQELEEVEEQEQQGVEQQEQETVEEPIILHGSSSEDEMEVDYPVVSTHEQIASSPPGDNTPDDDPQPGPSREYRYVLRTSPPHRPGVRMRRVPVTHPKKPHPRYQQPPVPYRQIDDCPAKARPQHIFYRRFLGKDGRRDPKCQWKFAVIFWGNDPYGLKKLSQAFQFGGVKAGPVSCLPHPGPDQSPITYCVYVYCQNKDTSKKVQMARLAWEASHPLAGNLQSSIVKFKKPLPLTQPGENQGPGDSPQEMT
Beta2AR agonist: activates human beta-2 adrenergic receptor causing internalization | P07550 | Am2.2-beta2AR cells, FAP receptor internalization, flow cytometry; reference of the scale not given here | response, % (concentration not given with the values) | actives 0.43% (n = 340,000) | AID 504454;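 active = response above a set limit, near 3 SD of response in nonfluorescent compounds, cut at about 42% in these data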;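 also: stock transfer was 100 nL into about 11 µL; a reference agonist was the positive control; negative values mostly stem from fluorescent compounds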
Ecoli rRNA inh OD600: also measured in Ecoli rRNA inh; calls as there; OD600 change, %; measured here: OD600 growth;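 optical density of the mix in the first replicate; 0 = DMSO median and -100 = no signal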
Ecoli rRNA inh RFP: second read-out of Ecoli rRNA inh, no call of its own (marks repeat the call); RFP signal change, %; measured here: RFP humanized mutant strains;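 first replicate; 0 = DMSO median and -100 = no signal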
* marks the source's active call; other numbers are inactive results; ? = inconclusive; . = no result given.

SMILES	A1 inh	T cruzi inh	Beta cell apopt	Calb FLC	ALR H2O2 inh	Ecoli rRNA inh	Ecoli rRNA inh OD600	Ecoli rRNA inh RFP	LANA-H2A inh	Beta2AR agonist
O=S(=O)(N/N=C1/CC(c2ccccc2)Oc2ccccc21)c1ccc(Br)cc1 (stereo unspecified)	0.3	6	11	2	-3	.	.	.	0.0	5
CCc1c(C)c(C#N)c2nc3ccccc3n2c1-n1nc(C)cc1C	0.5	1	5	-11	-5	.	.	.	-6.2	1
CCCn1cnc2sc(C(N)=O)c(C)c2c1=O	-0.6	-3	-6	2	2	.	.	.	5.5	0
CC(C)NS(=O)(=O)c1ccc(OCC(=O)NCc2ccccc2)cc1	0.4	3	-3	2	-32	.	.	.	-5.5	3
Cc1ccccc1CC1(CO)CCCN(Cc2c(C)nn(C)c2Cl)C1 (stereo unspecified)	0.0	32	-9	-17	-2	-1	-3	-5.3	5.1	4
Cc1cc(C)n(-c2cc(N3CCN(S(=O)(=O)c4ccc(Br)cc4)CC3)ccc2[N+](=O)[O-])n1	0.7	4	8	-5	-1	.	.	.	-1.1	0
Cc1nc2ccccn2c1C(=O)N/N=C/c1ccc([N+](=O)[O-])o1	0.6	71*	-34	100*	-21	-2	-6	0.5	4.2	6
Fc1ccc(-c2cn(-c3ccccc3)c3[n+]2CCS3)cc1	1.9	-11	25	-4	1	12	28	0.8	-2.6	2
COc1ccc(C2C(C(=O)N3CCCC3)c3cc(OC)c(OC)cc3C(=O)N2C)cc1 (stereo unspecified)	0.7	-6	-2	14	-10	.	.	.	4.2	3
CC(=O)C1=C(O)C(=O)N(C)C1c1ccccc1F (stereo unspecified)	-0.2	-9	1	-9	-4	.	.	.	0.9	2
CCN(CC)C(=O)/C(NC(=O)c1ccccc1)=C(/Sc1ncccn1)c1ccccc1	-1.2	4	-7	0	13	.	.	.	-3.7	-8
CCCCN(C(=O)c1cc(=O)[nH]c2ccccc12)c1c(N)n(CCC)c(=O)[nH]c1=O	0.1	-10	-2	-3	-19	.	.	.	-2.2	.
CCCCCNC(=O)C(C)Sc1ccc(Cl)cc1 (stereo unspecified)	0.9	11	0	17	2	.	.	.	0.5	-2
Cc1ccc(-c2oc3ccccc3c(=O)c2OCC(=O)O)cc1	1.4	3	-5	2	0	-10	-21	-7.1	-0.1	-8
Cc1ccc(CC(=O)NCC(O)c2ccccc2)cc1 (stereo unspecified)	-0.5	-20	.	-1	-9	2	2	-2.1	-3.1	2
COc1cc(C(=S)N2CCOCC2)ccc1OC(=O)Cc1ccc(F)cc1	1.0	-23	-10	2	3	.	.	.	2.0	7
Cc1ccc(-c2cccc(NC(=O)C3C(C(=O)O)[C@@H]4C=C[C@H]3C4)c2)o1 (stereo partly specified)	0.8	23	-2	-10	-3	.	.	.	-5.5	0
CNC(=O)C1CC(=O)N(Cc2ccc(OC)c(OC)c2)C(=Nc2ccc(OC)cc2)S1 (stereo unspecified)	0.0	3	0	3	2	.	.	.	-2.3	-5
Cc1cccc(NC(=O)C2C(c3ccccc3)C2(Cl)Cl)c1 (stereo unspecified)	0.1	16	10	-20	-20	-49	-76	-30	-4.8	-3
CC(C)C(c1nnnn1Cc1ccc2c(c1)OCO2)N1CCN(c2ccccc2)CC1 (stereo unspecified)	-0.9	-3	2	3	47	.	.	.	-1.6	5
Cc1nnc(-c2cccc(C(F)(F)F)c2)nc1N1CCOCC1	-0.9	-9	2	21	-22	-18	-12	-0.2	9.4	-12
N#C/C(=C/c1ccc(N2CCCCCC2)o1)c1ccc(Cl)cc1	1.8	65*	81*	6	17	.	.	.	-2.8	-918
CCN(C(=S)Nc1cc(S(=O)(=O)N2CCOCC2)ccc1Cl)c1cccc2ccccc12	0.6	4	-7	12	.	4	-5	12	4.2	0
O=C(CCN1C(=O)C2CCCCC2C1=O)Nc1nc(-c2ccc(F)c(F)c2)cs1 (stereo unspecified)	0.0	6	-4	0	-7	-3	-35	-6.9	4.5	15
Cc1ccc(CNC(=O)CCCCCNC(=O)N2CCn3c2nc2ccccc23)cc1	0.5	1	-2	1	3	1	0	-3.8	-2.1	-4
Nc1nc2ccccc2n1CCOc1ccccc1Cl	0.6	36	15	-7	-7	.	.	.	-3.9	0
COc1ccc(C(=O)Nc2nnc(SCC(=O)NCc3ccco3)s2)c(OC)c1	-1.2	0	-5	0	-10	2	7	1.6	-1.6	-6
Cc1cc(C)n(C(=O)c2ccc(Cl)c(F)c2F)n1	-0.8	-3	-1	-15	3	12	6	-0.8	-6.0	-3
CCCCCCNC(=O)CCCCCNS(=O)(=O)c1ccc(OC)cc1	0.2	3	.	-4	-5	-11	-14	6.2	-1.8	-14
Cn1cnnc1SCC(=O)Nc1ccc(N2CCCCC2)cc1	-1.5	.	-4	.	99*	8	7	7.8	-0.2	8
CC(=O)c1c(C)[nH]c(C(=O)Nc2ccc3c(c2)OCCO3)c1C	0.2	1	0	2	.	.	.	.	-1.9	1
CCSc1nnc(NC(=O)c2csc3c2CCCC3)s1	-0.5	.	9	10	-12	.	.	.	-3.5	-9
CC(NC(N)=O)C12CC3CC(CC(C3)C1)C2 (stereo unspecified)	-0.2	-14	-1	-5	-1	.	.	.	-5.0	5
Cc1cc(NC(=O)CCC(=O)N(c2ccc(C)c(F)c2)C(C(=O)NC2CCCC2)c2ccco2)no1 (stereo unspecified)	1.2	-6	-1	-1	-4	0	8	-3.1	4.0	4
NC(=O)NC(Cc1ccccc1)c1ccccc1 (stereo unspecified)	.	-19	.	9	.	8	6	-9.8	.	11
COc1ccc(OC)c(NC(=O)c2nnn(Cc3ccccc3C)c2N)c1	0.3	2	-6	12	-15	.	.	.	-5.8	7
CC(=O)N(C)c1ccc(OCC(O)Cn2c3ccc(Cl)cc3c3cc(Cl)ccc32)cc1 (stereo unspecified)	-0.2	48	26	10	1	.	.	.	-1.4	13
CCCCN(C(=O)c1cc2ccccc2o1)c1c(N)n(CCCC)c(=O)[nH]c1=O	0.3	.	-2	.	2	16	11	7.1	3.1	0
COc1ccc(OC)c(NC(=O)N2CCc3ccccc3C2)c1	0.3	-2	-1	-9	-7	-1	-17	-1.1	7.1	2
COc1ccccc1C(=O)Nc1onc(C)c1C#N	-0.6	-4	-4	10	.	0	3	0.7	5.1	-6
CCN1C(=O)N(C(C)=O)C2C1N(C(C)=O)C(=O)N2C(C)=O (stereo unspecified)	-0.8	-9	-3	3	5	13	5	-0.2	4.8	-4
CC(C)COC(=O)N1CC(O)CC1C(=O)Nc1ccc2c(c1)OCO2 (stereo unspecified)	0.4	.	-5	.	.	3	18	5.1	-3.1	26
COc1cccc(/C=N/n2c(C)nc3ccccc32)c1OC	-0.9	-1	-4	4	-4	.	.	.	5.5	6
CCOC(=O)NCc1ccc(CNC(=O)OCC)cc1	0.7	1	0	-6	-20	.	.	.	3.7	-3
CSc1nnc(-c2cccc(NC(=S)NN)c2)o1	0.3	-17	-1	?	18	-8	3	-2.6	-0.5	74*
CN1CC(c2ccccc2)C(c2ccc(Cl)cc2)=N1 (stereo unspecified)	0.7	-12	2	-5	24	-27	-34	-9.2	3.9	0
Cc1[nH]n(-c2ccccc2)c(=O)c1N=Nc1cccc(Cl)c1	0.0	-4	1	-6	-1	-4	7	-3.0	0.6	7
Cc1cc(NC(=O)C(C)SCC(=O)Nc2ccccc2N2CCCC2)no1 (stereo unspecified)	1.0	-1	-8	-3	.	-6	1	3.3	0.6	-2
Cc1cc(C)cc(N(CC(=O)NC2CCCCC2)C(=O)c2ccc(C)s2)c1	0.4	9	6	-3	-3	.	.	.	0.6	3
CCCc1c(C)c2ccc(OCC(C)=O)cc2oc1=O	-0.8	-2	1	11	-6	.	.	.	0.2	-6
CCCCN(C(=O)CSCC(=O)Nc1ccc(OC)cc1)c1c(N)n(Cc2ccccc2)c(=O)[nH]c1=O	0.2	-8	.	2	29	-1	0	-1.4	-1.8	-2
Cc1ccccc1NS(=O)(=O)c1ccc(NS(=O)(=O)c2cccs2)cc1	0.4	6	-4	3	0	-8	-30	-8.2	3.0	2
Cc1nc(NC(=O)c2cc3ccccc3o2)ccc1Br	-4.1	8	7	5	-3	14	22	-0.9	-1.2	0
COC(=O)CCc1cccc(CCC(=O)OC)c1	1.1	-7	-2	0	3	6	17	-2.9	0.8	0
O=c1[nH]c(/C=C\c2cccs2)nc(O)c1[N+](=O)[O-]	-0.6	-7	-2	30	34	10	10	-0.2	-1.0	-3
COc1ccc(C(=O)NC2CCN(C(=S)Nc3ccccc3)CC2)cc1	-0.4	-11	-5	-13	-2	1	5	2.8	-0.1	-2
CC(=O)c1ccc(N=Nc2c(C)[nH]n(-c3ccccc3)c2=O)cc1	-0.4	14	-14	7	.	14	5	2.4	0.7	3
Cc1cccc2cc(C#N)c(SCC(=O)NCC3CCCO3)nc12 (stereo unspecified)	-2.0	20	11	-1	-3	.	.	.	-0.6	9
CCCCn1c(/N=C/c2cc(OC)ccc2O)nc2ccccc21	-0.6	1	-1	19	6	.	.	.	1.5	1
COc1cccc(-n2c(SCC(=O)Nc3ccc4c(c3)CCC4)nc3ccccc3c2=O)c1	0.2	15	-7	-12	7	11	10	-2.5	-0.6	-1
Next compounds.
SMILES	A1 inh	T cruzi inh	Beta cell apopt	Calb FLC	ALR H2O2 inh	Ecoli rRNA inh	Ecoli rRNA inh OD600	Ecoli rRNA inh RFP	LANA-H2A inh	Beta2AR agonist
COC(CNC(=O)c1ccc2c(c1)ncn2-c1cccc(F)c1)OC	-0.1	-15	-1	0	-9	17	7	-0.7	3.0	-1
COc1cccc(CC(=O)OC(C)C(=O)Nc2ccc(Cl)cn2)c1 (stereo unspecified)	-0.3	-1	-5	10	5	-2	-14	-0.4	-9.0	2
CC(C)(CO)NC(=S)NCc1ccco1	0.4	-14	-1	18	-43	7	7	6.5	0.8	8
CCOc1cc([N+](=O)[O-])cc(/C=N/NC(=O)c2c(-c3ccccc3)noc2C)c1O	0.1	-4	4	0	-2	.	.	.	1.8	2
O=C(c1cn2ccccc2n1)N1CCc2c([nH]c3ccccc23)C1c1ccccn1 (stereo unspecified)	0.4	6	-10	-2	1	-10	-8	-0.7	2.8	-31
CCn1nc(C)c(NC(=O)CCSc2nc(-c3ccco3)cc(C(F)(F)F)n2)c1C	0.8	-10	-1	9	1	.	.	.	1.5	-6
O=C(NCC(c1ccco1)N1CCCC1)c1cccc(NS(=O)(=O)c2ccccc2)c1 (stereo unspecified)	0.4	33	3	5	-8	3	0	-0.7	-2.7	0
Cc1nc(-c2nc(-c3c(C(=O)NNC(=O)c4ccc(Cl)cc4)noc3C)cs2)cs1	-0.3	-5	5	21	-4	9	6	1.4	0.9	-3
COc1ccccc1OCCNC(=O)c1cccc(S(=O)(=O)N2CCN(C)CC2)c1	1.1	-5	-5	7	2	8	4	1.1	-5.1	14

A portion of the library; count on the stated rates, not on these rows.
